Screens from PubChem BioAssay.
MARV entry inh = qHTS for inhibitors of binding or entry into cells for Marburg Virus; Potency, µM (doses to about 37.8 µM), for inactives: at the highest dose activity change, negative = inhibition, hits mostly inhibitors; Marburg virus pseudotyped entry inhibition, cell reporter; control for the full effect not named in the record; about a third of the inactives were read at about 46 µM; 300,000 compounds, 1.8% hits; AID 540276, 2011; active = well fitted inhibition curve with a large enough effect; inconclusive = small, poorly fitted or top-dose-only effect, or effect the other way; inactive = flat fitted curve, though single readings scatter; tested in HEK293 cells; about a fifth of its hits are not listed in these tables; note: % is set by controls: 0 for no effect and ±100 for the full control effect; luciferase read-out
NS1 inh = qHTS Assay for Inhibitors of Influenza NS1 Protein Function; S. cerevisiae slowed by influenza A NS1, growth recovery by OD600; AID 2326, 2010; Potency, µM (titrated, usually from 46.1 µM), for inactives: at the highest dose activity, positive = more growth; 270,000 compounds, 0.4% hits; note: actives are rising curves; nearly all actives have a fitted effect of over 50% in size
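A cell-based growth assay was used: compounds that relieve NS1-induced slow growth of budding yeast raise OD600. Assay medium was yeast nitrogen base with ammonium sulphate and -URA supplement, pH 6.0, with 2% galactose.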
RE007 growth inh = qHTS Assay for Inhibitors of the HIV-1 protein Vpr; S. pombe RE007 Vpr strain, BacTiter-Glo ATP luminescence, 24 h; control for the full effect not named in the record; AID 651644, 2012; 360,000 compounds, 0.21% hits; Potency, µM (highest dose often 92.2 µM), for inactives: at the highest dose activity change, negative = less growth; active = well fitted falling curve with a large enough effect; inconclusive = small, poorly fitted or top-dose-only effect; inactive = no such curve, though single readings can be large or run the other way;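 note: % is set by controls: 0 for no effect and ±100 for the full control effect; nearly all actives have a fitted effect of over 50% in size; the assay follows cell death caused by Vpr and the record does not say whether a fall means rescue or toxicity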
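Fission yeast RE007 carrying one integrated HIV-1 vpr copy, seeded at OD 0.01 in PMG+AL medium with 23 nL pinned compound. Grown 24 h at 30 degrees; viability read by BacTiter-Glo luminescence after 5 min.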
Cruzain Triton = qHTS Assay for Promiscuous and Specific Inhibitors of Cruzain (with detergent) | Cruzipain (Trypanosoma cruzi), P25779 | purified cruzain, Z-FR-AMC fluorescence, 0.01% Triton | Potency, µM, inactives show max response, negative = inhibition, actives largely listed as inhibitors | 200,000 compounds, 0.43% hits | AID 1478, 2009; active = well fitted curve in the direction sought with a large enough effect; inconclusive = small, poorly fitted or top-dose-only effect, or another doubt; inactive = no such curve, though single readings can be large; an effect the other way counts as inactive or inconclusive;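 note: plate controls were neutral wells for no effect and buffer without enzyme for full effect; nearly all actives have a fitted effect of over 40% in size; top concentration of the series not given in the record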
Target sequence (P25779 123-467 limits assumed): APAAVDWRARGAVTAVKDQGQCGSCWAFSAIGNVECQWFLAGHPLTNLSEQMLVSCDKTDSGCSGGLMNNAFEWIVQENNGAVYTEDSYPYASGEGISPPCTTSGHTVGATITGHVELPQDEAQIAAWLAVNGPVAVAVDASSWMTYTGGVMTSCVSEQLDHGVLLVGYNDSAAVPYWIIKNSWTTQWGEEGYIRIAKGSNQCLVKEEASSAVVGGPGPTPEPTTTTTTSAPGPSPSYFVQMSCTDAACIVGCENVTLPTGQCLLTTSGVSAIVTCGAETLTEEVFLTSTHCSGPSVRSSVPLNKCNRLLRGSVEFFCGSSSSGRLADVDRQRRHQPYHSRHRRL
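Purified cruzain (1.5 nM final) was preincubated with compounds for 15 min at room temperature in 100 mM sodium acetate pH 5.5, 5 mM DTT, 0.01% Triton X-100. Reaction started with 2 uM Z-FR-AMC; AMC fluorescence change over 60 s gave activity.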
Cruzain inh noDet = qHTS Assay for Promiscuous and Specific Inhibitors of Cruzain (without detergent); purified cruzain, Z-FR-AMC fluorescence, no detergent; Cruzipain (Trypanosoma cruzi), P25779; Potency, µM, for inactives: max response, negative = inhibition, hits mostly inhibitors; 200,000 compounds, 2.3% hits; AID 1476, 2009; active = well fitted curve in the direction sought with a large enough effect; inconclusive = small, poorly fitted or top-dose-only effect, or another doubt; inactive = no such curve, though single readings can be large; an effect the other way counts as inactive or inconclusive;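 note: plate controls were enzyme without inhibitor for no effect and buffer without enzyme for full effect; nearly all actives have a fitted effect of over 40% in size; top concentration of the series not given in the record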
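Detergent-free condition (0.00005% Triton X-100) in acetate buffer pH 5.5 with DTT. 1.5 nM enzyme and compound were pre-mixed 15 min, then 2 uM Z-FR-AMC substrate added; reaction progress from fluorescence change between first and third reads (60 s).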
StopGo reporter = High Throughput Screening for Foot and Mouth Disease Virus Antivirals; AID 1159524, 2015; Potency, µM (titrated, usually from 57.9 µM), for inactives: top-dose signal change, negative = less light; human cells with a luciferase reporter of 2A StopGo recoding; control for the full effect not named in the record; 410,000 compounds, 1.2% hits; active = well fitted falling curve with a large enough effect; inconclusive = small, poorly fitted or top-dose-only effect; inactive = no such curve, though single readings can be large or run the other way; tested in HEK293T cells; note: % is set by controls: 0 for no effect and ±100 for the full control effect; nearly all actives have a fitted effect of over 45% in size; luciferase light after 4 h
SARS PLpro yeast = qHTS of Yeast-based Assay for SARS-CoV PLP | Potency, µM (doses to about 32.9 µM), for inactives: at the top dose activity, positive = growth rescue | S. cerevisiae expressing SARS-CoV PLpro, growth rescue; control for the full effect not named in the record | 330,000 compounds, 0.19% hits | AID 485353, 2010; note: 0% is about no effect; nearly all actives have a fitted effect of over 55% in size; growth read by luminescence after 48 h
Lassa entry inh = qHTS for Inhibitors of binding or entry into cells for Lassa Virus | 300,000 compounds, 1.2% hits | Potency, µM (doses to about 37.9 µM), without a hit: at the highest dose activity change, negative = inhibition, usual class: inhibitors | Lassa virus pseudotype entry inhibition, cell reporter; control for the full effect not named in the record; active means well fitted inhibition curve with a large enough effect; inconclusive means small, poorly fitted or top-dose-only effect, or effect the other way; inactive means flat fitted curve, though single readings scatter; tested in HEK293 cells; note: % is set by controls: 0 for no effect and ±100 for the full control effect; nearly all actives have a fitted effect of over 50% in size; luciferase read-out
Numbers without * were called inactive; ? = inconclusive; · = no result given; & = joins results of further samples; [ ] = remark or other dose. Unless noted, calls come from the whole dose curve; as a rule, active means well fitted rising curve with a large enough effect; inconclusive means small, poorly fitted or top-dose-only effect; inactive means no such curve, though single readings can be large or run the other way. Potency is the fitted concentration of half-maximal effect.

SMILES	MARV entry inh	NS1 inh	RE007 growth inh	Cruzain Triton	Cruzain inh noDet	StopGo reporter	SARS PLpro yeast	Lassa entry inh
COc1ccc(C)cc1NC(=O)CSc1nnc2ccc(-c3ccccn3)nn12	22.8%[46.1 µM]	·	7.1%	·	·	-3.3%	-1.4%	-18.7%
O=C(NC1CCCCC1)C(c1ccc(F)cc1)N(Cc1ccco1)C(=O)c1csnn1 (stereo not drawn)	-17.3%[46.1 µM]	20.7%	18.9%	·	·	2.3%	-0.3%	-29.2%
Cc1sc(N)nc1-c1ccc2c(c1)OCCO2	·	-13.3%	-2.0%	·	·	50.3%[activator]	-3.0%	·
Cc1ccc(S(=O)(=O)N2CCCC2CO)cc1 (stereo not drawn)	-1.8%	-3.7%	8.4%	2.2%	2.6%	·	7.8%	12.8%
O=C(NN1C(=O)C2C3C=CC(O3)C2C1=O)c1cccc(Br)c1 (stereo not drawn)	7.6%[46.1 µM]	1.6%	-10.9%	·	·	5.3%	-2.1%	-8.2%
CC(=O)N1CCc2cc(S(=O)(=O)Nc3cccc(C(F)(F)F)c3)ccc21	?	-20.8%	?	-5.0%	26.5%	-18.5%	9.1%	?
C/C(CC(=O)Nc1ccccn1)=N\NC(=O)c1ccccc1	·	0.3%	·	1.0%	5.2%	·	-9.5%	·
Cc1cccc(NC(=O)N2C3CCCC2CC(NC(=O)C2CC2)C3)c1 (stereo not drawn)	3.8%[46.1 µM]	-3.0%	-1.1%	·	·	8.9%	4.0%	-7.6%[46.1 µM]
CCCCCCn1c(N2CCN(c3ccccc3)CC2)nc2c1c(=O)n(C)c(=O)n2C	?	-55.6%	-4.8%	-2.7%	?	?	0.2%	?
CCn1nc(C)c(NC(=O)c2cnn3c(C(F)F)cc(-c4ccccc4)nc23)c1C	?	-6.7%	-1.1%	·	·	?	-1.1%	?
CCOc1ccccc1NC(=O)CN1CCC(C(=O)c2ccc(F)cc2)CC1	?	-20.5%	-7.9%	·	·	?	-0.1%	?
Cc1cccc(C)c1OCc1cc(C(=O)NCC2CC2)no1	?	-8.4%	9.6%	·	·	14.2%	-6.8%	-24.0%[46.1 µM]
Cn1nnnc1SCC(=O)Nc1ccc(N2CCOCC2)cc1	?	-2.8%	5.3%	5.1%	-3.7%	·	4.6%	?
O=C(OCCOc1ccccc1)c1n[nH]c2ccccc12	-2.2%[46.1 µM]	-8.7%	-4.6%	·	·	0.0%	-1.6%	?
O=C(Nc1nc2ccccc2n1CCN1CCCCC1)C1CCCCC1	?	2.7%	7.6%	0.7%	-5.2%	0.0%	1.3%	-2.7%
O=C(Cn1ncc2c(=O)oc3ccccc3c21)N1CCC(N2CCCCC2)CC1	-0.2%	-2.5%	2.5%	-5.8%	-2.6%	0.0%	-2.5%	·
COCCNC(=O)CCCn1c(=O)[nH]c2ccsc2c1=O	19.9%[46.1 µM]	·	·	1.3%	0.7%	-20.1%	·	?
COc1ccc(N2CC(C(=O)Nc3nccs3)CC2=O)cc1 (stereo not drawn)	28.1%	-6.6%	14.0%	4.8%	7.8%	-7.4%	1.2%	3.0%
CCc1ccc2nc(NC3=NCN(CCN4CCOCC4)CN3)nc(C)c2c1	-3.0%	-4.4%	·	-17.9%	-17.8%	·	-11.3%	·
CN(C(=O)CSc1nc2ccccc2n1CC(=O)N(C)c1ccc(F)cc1)c1ccccc1	·	·	·	0.0%	5.0%	-14.9%	·	-22.2%[46.1 µM]
O=C(CN1c2cccc3cccc(c23)S1(=O)=O)NCc1ccc(F)cc1	?	·	2.8%	·	·	?	1.6%	?
CCCCN1C(=O)C2NN=C(C(=O)OC)C2C1=O (stereo not drawn)	14.2%	-7.2%	18.9%	6.0%	-0.6%	1.0%	-3.0%	2.8%
Cc1ccc(SCCNC(=S)Nc2ccc(C)c(C)c2)cc1	?	-110.1%	-28.4%	-14.3%	-18.1%	-5.2%	-4.5%	6.7%
O=S(=O)(Nc1ccccc1)c1cccc2nonc12	·	-0.1%	7.9%	·	·	-1.5%	8.2%	·
Cc1ccccc1NC(=O)CN1CCOCC1	19.6%	8.4%	4.8%	·	·	-13.1%	8.1%	12.6%
COc1ccc(C(NC(C)=O)c2c(O)ccc3ccccc23)cc1OC (stereo not drawn)	?	11.4%	6.7%	-4.2%	3.3%	-4.7%	1.1%	8.5%
CCOC(=O)c1ccc(NC(=O)Cn2nnc3ccccc32)cc1	-6.9%&-6.9%[46.1 µM]	4.4%	5.0%	-4.5%	-17.5%	15.8%	-3.7%	-11.0%
Cc1ccc(S(=O)(=O)Nc2ccccc2N=Cc2c(F)c(F)c(F)c(F)c2F)cc1	-17.9%	·	1.8%	·	·	0.0%	·	9.3%
COc1ccc(NC(=O)c2c(NC(=O)c3cccc(C)c3)sc3c2CCCC3)cc1	8.4%[46.1 µM]	·	·	-2.4%	-2.1%	?	·	28.8%[46.1 µM]
COc1ccc(-c2cc(C)no2)cc1S(=O)(=O)N1CC(=O)Nc2ccccc21	·	4.4%	10.2%	·	·	-24.9%	6.2%	·
CCCCCOc1ccc(C(=O)NC(C(=O)O)C(C)C)cc1 (stereo not drawn)	-0.2%	-160.2%	5.5%	0.0%	0.4%	·	0.3%	?
Cc1cc(NS(=O)(=O)c2ccc(NC(=O)c3ccccc3F)cc2)nc(C)n1	21.6%[46.1 µM]	·	·	-1.1%	10.4%	47.9%[activator]	·	13.2%[46.1 µM]
CC(C)Cc1c(O)nc(SCC(=O)N2CCCCCC2)[nH]c1=O	?	8.3%	-2.9%	·	·	-0.5%	0.2%	0.1%[46.1 µM]
COc1ccc(C2=NN(C(=O)CSc3nnc(C)n3C)C(c3ccco3)C2)cc1 (stereo not drawn)	?	·	7.2%	·	·	-7.0%	0.2%	2.2%
Cc1ccc(C)c(N2CCN(C(=O)c3noc4c3CCCCC4)CC2)c1	·	·	·	-2.6%	-1.9%	-14.4%	·	-14.0%[46.1 µM]
Cn1c(C(=O)NCc2cccc(F)c2)cc2cc(S(=O)(=O)N3CCCCC3)ccc21	·	·	·	-1.0%	?	-26.8%	·	?
COc1ccc(-c2[nH]ncc2Oc2ccccc2OC)c(O)c1	-18.6%	-41.2%	-5.4%	-9.4%	-10.7%	-16.1%	-20.0%	1.1%
COc1ccc(/C(C)=N/NC(=O)c2ccccc2OCc2ccccc2)c(OC)c1	?	-19.7%	0.0%	·	·	7.5%	-0.7%	7.8%
COc1ccc(-n2cnc3cc(NCc4ccco4)ccc32)cc1	?	-72.1%	?	-3.1%	2.5%	55.8%[activator]	-1.6%	?
CN(C(=O)COC(=O)CCC(=O)c1ccccc1)c1c(N)n(Cc2ccccc2)c(=O)[nH]c1=O	?	·	0.8%	·	·	1.4%	·	-24.6%
CCn1cc(C2N3CC4(CC)CN2CC(CC)(C3)C4=O)c2ccccc21 (stereo not drawn)	?	·	·	-2.0%	21.2%	-19.0%	·	·
COc1ccccc1-c1nc2c(c(SCc3cccc(Cl)c3)n1)Cc1c(CO)cnc(C)c1O2	·	·	·	-6.9%	?	?	·	-6.8%[46.1 µM]
O=C1CSCN1c1ccc(Cl)cc1	·	0.2%	4.2%	·	·	-3.6%	-0.2%	·
COc1ccc(CCNC(=O)c2ccc(COc3ccccc3OC)o2)cc1	·	-0.1%	-11.3%	·	·	-11.7%	-1.3%	·
O=C(c1ccc(-c2ccccc2)cc1)N1CCN(c2ccccc2)CC1	·	-3.2%	-5.6%	·	·	41.0%[activator]	0.9%	·
Cc1cc(C(=O)CSc2n[nH]c(N)n2)c(C)n1C1CC1	18.1%	18.3%	-12.4%	0.0%	-3.1%	0.0%	-6.1%	-1.1%
COc1ccc(-c2ccc(CNCCCSc3nnnn3C)o2)cc1Cl	-18.2%[46.1 µM]	·	·	-4.5%	3.8%	40.9%[activator]	·	3.4%[46.1 µM]
COC(=O)[C@@H]1CC[C@H](C)[C@@H](c2ccc(C)cc2)N1C(=O)c1ccc(/C=N/O[C@@H](C)CN2CCCCc3nc(C)c(C)cc32)cc1	?	-75.7%	·	-0.9%	6.6%	·	-32.5%	6.0%
Cc1ccc(C)c(S(=O)(=O)Nc2cc(C)on2)c1	·	2.0%	3.7%	·	·	7.0%	2.9%	·
O=C1CN(S(=O)(=O)c2ccc(Cl)cc2C(F)(F)F)CCN1	20.9%[46.1 µM]	12.4%	13.6%	·	·	3.6%	6.1%	3.0%
CSc1nc2[nH]c3c(c2c2nnnn12)CCCC3	-2.1%&-2.1%	-63.8%	-6.1%	1.5%	-10.8%	-4.6%	-2.3%	-23.7%
Cc1ccc(C(=O)/C=C/Nc2ccc([N+](=O)[O-])cc2Br)cc1	-0.3%[46.1 µM]	8.4%	-3.4%	4.7%	?	18.2%	0.0%	?
CN(C)S(=O)(=O)c1cccc(C(=O)Nc2cccnc2)c1	-23.4%	1.0%	4.7%	-0.6%	-3.4%	-19.3%	9.2%	12.6%
Cc1noc(C)c1S(=O)(=O)N(CC(=O)O)c1ccc2c(c1)OCO2	-13.8%	-2.5%	13.1%	0.7%	-4.0%	-2.6%	3.7%	-0.2%
COc1ccc(/C=N/n2cncn2)cc1CSc1ccccn1	7.1%	-3.2%[9.22 µM]	12.4%	2.0%	-0.1%	-5.0%	1.1%	4.9%
CCOC(=O)CNC(=O)CSc1ncnc2c1nnn2-c1ccc(F)cc1	0.2%	9.1%	17.6%	-2.4%	-9.5%	-16.7%	0.6%	9.4%
Cc1ccc(N(C(=O)c2ccccn2)C(C(=O)NC2CCCCC2)c2ccncc2)cc1 (stereo not drawn)	16.0%[46.1 µM]	-8.7%	-2.3%	·	·	-19.7%	3.3%	-0.7%[46.1 µM]
